Screens: PubChem, several laboratories
Beta2AR agonist: human beta-2 adrenergic receptor agonism by FAP | P07550 | Am2.2-beta2AR cells, FAP receptor internalization, flow cytometry; reference of the scale not given here | response, % (concentration not given with the values) | actives 0.43% (n = 340,000);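 active = response above a set limit, near 3 SD of response in nonfluorescent compounds, cut at about 42% in these data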;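 note: stock transfer was 100 nL into about 11 µL; a reference agonist was the positive control; negative values mostly stem from fluorescent compounds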
Target sequence (P07550 whole entry, looked up): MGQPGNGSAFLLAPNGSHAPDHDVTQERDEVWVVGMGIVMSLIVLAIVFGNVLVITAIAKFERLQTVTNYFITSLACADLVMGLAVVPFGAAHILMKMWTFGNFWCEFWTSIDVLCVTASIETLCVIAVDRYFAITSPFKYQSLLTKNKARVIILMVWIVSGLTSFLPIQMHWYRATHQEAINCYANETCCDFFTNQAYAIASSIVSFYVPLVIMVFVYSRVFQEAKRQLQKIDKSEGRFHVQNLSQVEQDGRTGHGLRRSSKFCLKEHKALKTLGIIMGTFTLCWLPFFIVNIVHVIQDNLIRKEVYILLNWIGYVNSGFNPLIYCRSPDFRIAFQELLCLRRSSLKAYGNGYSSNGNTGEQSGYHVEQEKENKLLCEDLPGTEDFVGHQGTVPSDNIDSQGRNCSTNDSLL
Beta apoptosis: beta cell apoptosis inhibition; INS-1E cytokine-induced death, ATP luminescence, 48 h; percent of positive-control rescue, neutral wells zero; protection from apoptosis, % (test concentration not listed); actives 0.8% (n = 300,000);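 active = all replicates at 75% or more, or half of them and the mean; inconclusive = half reach 75% but not the mean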;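 note: 0% = cytokine-treated negative control wells and 100% = positive control rescue; higher means more ATP so stronger rescue from cytokine killing; wells of about 40 µL received 100 nL stock; the first replicate is given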
rRNA inh HTS: inhibits bacterial ribosomal RNA function over humanized ribosomes; actives 1.6% (n = 350,000); E. coli WT GFP vs humanized-ribosome RFP mutants, fluorescence, 24 h; stronger effect = lower value; DMSO median 0, no signal -100; GFP signal change (wild-type ribosome), % (no concentration beside the values);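 active = significant combined selectivity score with lowered wild-type GFP, culture density cut under 30%, mutant RFP and density less affected; inactive = any of these conditions unmet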; note: one replicate is shown; some compounds called inactive have numbers as strong as hits
T cruzi inh: blocks replication of Trypanosoma cruzi; T. cruzi beta-gal in NIH3T3, luminescence, 90 h; inhibition, % (test concentration not listed); actives 1.4% (n = 300,000);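 active = mean inhibition across valid replicates above about 55%, limit read from the data; inconclusive = mean below that limit but half or more replicates reach it; inactive = mean below it, under half of replicates reach it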;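 note: signal also drops with host cell toxicity which is not excluded here; 0% = plate median of DMSO wells and 100% = zero luminescence signal; higher percent means less beta-gal luminescence so fewer parasites; stock transfer was 50 nL into about 50 µL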
ALR inh: human ALR oxidase inhibition via reduced H2O2. inhibition, % (concentration not given with the values). AID 485317. purified ALR, DTT oxidation, H2O2 HRP-luminol luminescence. actives 3.8% (n = 290,000);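 active = mean and each replicate at 75% or more; inconclusive = only one of the two met; inactive = neither met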;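 note: stock transfer was 7.5 nL into about 7.5 µL; 0% = neutral wells and 100% = wells with inactivated enzyme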
Target sequence (P55789 whole entry, looked up): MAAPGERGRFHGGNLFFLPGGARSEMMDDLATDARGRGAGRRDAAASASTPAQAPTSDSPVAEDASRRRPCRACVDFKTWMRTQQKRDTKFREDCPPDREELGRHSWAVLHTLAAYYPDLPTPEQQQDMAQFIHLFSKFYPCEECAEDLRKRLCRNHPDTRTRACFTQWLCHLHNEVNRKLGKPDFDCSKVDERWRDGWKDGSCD
LANA-H2B inh: blocks KSHV LANA binding to histone H2A/H2B; cell-free LANA-H2A/H2B peptide, fluorescence polarization; inhibition, % (no concentration beside the values); actives 0.6% (n = 320,000); in the data active = inhibition mostly above about 10%, no sharp cut-off; inactive = mostly below about 6.7%;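 note: stock transfer was 7.5 nL into about 10 µL; 0% = median of vehicle wells and 100% = median of positive control wells; one replicate is shown; the record names a cut of 25% in any replicate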
A1 inh: inhibitors of the anti-apoptotic protein A1, read as caspase activation | AID 2462 | MEF A1-2A-BIM cells, Caspase-Glo 3/7 luminescence, 3 h; percent of clofoctol response, vehicle zero | actives 0.066% (n = 330,000) | caspase activation, % (concentration not given with the values);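 active = over half of replicate activation scores above 10%, or exactly half above 10 with the replicate mean above 10; inconclusive = replicate mean below 10 yet half the replicates above 10; inactive = over half of replicates below 10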;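 note: wells of about 30 µL received 50 nL stock; many hits fall short of the cut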
Calb FLC: C. albicans growth modulation with fluconazole | actives 0.57% (n = 300,000) | growth inhibition, % (concentration not given with the values) | C. albicans CaCi-2 (fluconazole-resistant clinical isolate) + fluconazole, Alamar Blue growth, 48 h;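 active = most replicates above 75%; inconclusive = exactly half above 75%; inactive = most below 75%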;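 note: all wells also contain fluconazole at 8 µg/ml as a sub-toxic cotreatment; 0% = median of DMSO wells and 100% = median of geldanamycin control wells; wells of about 8 µL received 7.5 nL stock; the first replicate is given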
rRNA inh HTS OD600: also measured in rRNA inh HTS; calls as there; OD600 change, %; measured here: OD600 growth;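 optical density of the mix in the first replicate; 0 = DMSO median and -100 = no signal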
rRNA inh HTS RFP: recorded beside rRNA inh HTS, whose call it bears; RFP signal change, %; measured here: RFP humanized mutant strains;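 first replicate; 0 = DMSO median and -100 = no signal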
Numbers without * were called inactive; ? = inconclusive; nt = not tested or not shown. An excerpt. The share of hits here may be higher or lower than overall.

SMILES	Beta2AR agonist	Beta apoptosis	rRNA inh HTS	rRNA inh HTS OD600	rRNA inh HTS RFP	T cruzi inh	ALR inh	LANA-H2B inh	A1 inh	Calb FLC
Nc1cccc(S(=O)(=O)Nc2ccc(Br)cc2)c1	10	4	-5	-12	-3.6	-6	-7	1.4	-0.2	4
Cc1cc(C)n(Cc2cccc(F)c2)c(=O)c1C#N	1	1	18	13	-1.7	-3	1	-2.4	1.4	8
CCCS(=O)(=O)c1nc(S(=O)(=O)c2ccc(C)cc2)c(NCc2ccc3c(c2)OCO3)s1	-5	nt	4	-8	-0.5	18	-9	0.1	0.6	13
O=C(CSC1=Nc2ccccc2C2=NC(CC(=O)NC3CCCCC3)C(=O)N12)NCc1ccco1 (stereo unspecified)	-8	0	nt	nt	nt	-3	3	3.4	0.1	-20
CN1CCN(C2OC(=O)c3ccccc32)CC1 (stereo unspecified)	-4	-2	nt	nt	nt	-10	nt	1.2	1.0	-11
O=C(CSc1nc2ccccc2n1Cc1ccc(Cl)cc1)N/N=C/c1ccccc1C(=O)O	-7	7	0	-6	-6.0	7	8	7.0	1.0	15
COc1ccc(S(=O)(=O)NC2CC(=O)N(c3ccc(C)c(C)c3)C2)cc1C (stereo unspecified)	2	nt	-8	-32	-0.5	5	0	-1.3	0.7	-4
O=C(Nc1ccc(Nc2ccccc2)cc1)c1cccc(F)c1	9	7	0	8	-2.9	4	7	-1.6	-2.2	15
Cc1cc2[nH]c(=O)c(=O)[nH]c2cc1S(=O)(=O)N1CCN(c2cccc(C)c2C)CC1	1	-1	0	24	2.6	-3	-6	3.1	-0.6	4
COc1cc(/C=N/NC(=O)CNC(=O)c2cccs2)ccc1O	0	-5	nt	nt	nt	-12	nt	9.2	-0.1	4
O=C1CC2(CCN(C(=O)c3ccc(F)cc3)CC2)Oc2ccccc21	1	-6	7	2	0.1	-8	1	-1.5	0.2	3
CC(C)C(NS(=O)(=O)c1cccc2nsnc12)C(=O)NCc1ccco1 (stereo unspecified)	5	-2	8	3	-2.0	18	-3	3.4	0.3	0
O=c1c2cc(NC(=S)N3CCCCC3)ccc2nc2n1CCCCC2	-4	-3	2	0	-1.2	-3	16	-0.7	0.7	0
Cc1ccc(/C=C/S(=O)(=O)NCC(=O)OCC(=O)N2CC(=O)Nc3ccccc32)cc1	10	-7	-3	6	3.0	-1	0	3.7	0.7	-1
CN(C)NC(=O)c1ccsc1NC(=O)c1ccc(S(=O)(=O)N(C)C)cc1	5	7	0	0	0.9	-10	nt	-12	1.6	-4
CC(C)CCN1CCN(Cc2cccs2)CC1CCO (stereo unspecified)	-3	-3	16	16	5.5	-7	nt	nt	-1.6	-6
O=C(CS(=O)CC(=O)N(CC(=O)NC1CCCC1)c1ccccc1F)Nc1ccc(F)cc1 (stereo unspecified)	-2	-4	3	-6	-2.7	5	-1	4.3	0.3	-1
CCN(CC)S(=O)(=O)c1cccc(C(=O)NC2CCCCC2)c1	-5	11	19	10	-8.0	-8	-2	-6.3	0.2	-8
COc1ccc(OC)c2[nH]c(=O)c(CCNC(=O)c3ccc(S(=O)(=O)N4CCCCC4)cc3)cc12	-6	-2	nt	nt	nt	22	-25	2.2	0.2	-1
COc1cccc(OC)c1-c1nnc(-c2cn(C)c3ccccc23)o1	20	0	nt	nt	nt	6	nt	-0.8	-0.3	3
CCc1nn(C(C)C(=O)N2CC(C)CC(C)C2)c(=O)c2cc3occc3n12 (stereo unspecified)	5	-6	2	-1	-3.1	10	-3	2.2	-0.8	4
CN(CC(=O)Nc1cccc(Cl)c1)C1=NS(=O)(=O)c2ccccc21	-5	0	4	2	-1.1	nt	1	-3.3	-1.2	nt
CC(NC(=O)CNC(=O)C1CCCCC1)c1ccc(S(N)(=O)=O)cc1 (stereo unspecified)	9	-9	4	5	0.8	4	-1	0.4	-0.5	-2
CCCCNC(=O)c1ccccc1NC(=O)CN(c1ccccc1)S(=O)(=O)N(C)C	0	0	nt	nt	nt	14	-1	2.1	0.0	0
OC(CNc1nc(-c2cccnc2)nc2ccccc12)c1ccccc1 (stereo unspecified)	14	4	4	10	-0.3	43	3	-1.6	-0.3	-2
O=C1CC(C(=O)N2CCC(N3CCC(C(=O)NC4CC4)CC3)CC2)c2ccccc21 (stereo unspecified)	-7	-5	7	-1	-1.3	-11	-22	-2.2	0.0	2
NS(=O)(=O)c1cccc(NC(=O)COC(=O)Cc2n[nH]c(=O)c3ccccc23)c1	-2	-2	6	10	-1.0	nt	-5	-4.1	-0.3	nt
CC(=O)Oc1ccc(C(=O)OCC(=O)c2c(N)n(C)c(=O)n(C)c2=O)cc1OC(C)=O	-1	0	6	-3	-2.8	-13	99*	8.1	-0.6	-5
Cc1cccc(NC(=S)N2CCN(S(C)(=O)=O)CC2)c1	8	-6	5	6	-0.3	-16	-4	-0.7	-0.3	3
COc1ccc(CCNC(=O)c2n[nH]c(=O)c3ccccc23)cc1	1	-11	nt	nt	nt	-16	-3	-0.7	-1.1	-3
COc1cc(NS(=O)(=O)c2c(C)oc3c(F)c(F)c(F)c(F)c23)cc(OC)c1OC	0	-6	-5	-26	-6.9	-2	2	-3.8	1.0	8
COc1ccc2[nH]c(C(=O)N3CCN(c4ccccc4F)CC3)c(C)c2c1	-1	-3	12	-22	6.2	-8	-25	-4.7	?	2
C=CCn1c(SCC(=O)Nc2cccnc2Cl)nnc1-c1ccc(Cl)cc1	-7	-9	nt	nt	nt	-1	-5	2.1	0.0	18
O=C(NCc1cccs1)c1ccc2c(c1)ncn2C1CCCC1	1	3	nt	nt	nt	-4	-8	0.2	0.0	-11
O=C(CN1C(=O)C2CCCCN2C(=O)c2ccccc21)Nc1ccc(F)cc1 (stereo unspecified)	-1	-5	7	6	-1.5	4	-8	2.3	0.7	15
CCOc1ncccc1C(=O)Nc1ccc(C)cn1	-5	0	-1	1	-1.3	-1	-5	6.7	-0.6	0
CC(=O)Nc1ccc(C(=O)OCC(=O)NC(=O)NC(C)(C)C)cc1	5	-2	nt	nt	nt	-12	-1	-1.2	-0.6	-23
CN(CC(=O)N1CCN(c2ccccn2)CC1)S(=O)(=O)c1ccccc1	51*	-3	nt	nt	nt	-8	5	-2.4	0.9	-8
Cc1ccc(COc2ccc(-c3nnco3)cc2)cc1	0	0	3	4	-3.0	-14	-4	0.1	-2.8	16
CC1=C/C(=N\Nc2ccccc2[N+](=O)[O-])CC(C)(C)C1	16	2	-12	-9	-3.2	9	98*	1.5	2.0	21
O=C(CN1C(=O)c2ccccc2C1=O)Nc1ccc(-c2nc3ccccc3o2)cc1	-11	-6	nt	nt	nt	-12	2	5.4	-0.5	3
CNC(=O)C1C(=S)NC(N)=C(C#N)C1c1ccccc1 (stereo unspecified)	0	15	nt	nt	nt	-20	24	2.9	2.4	-7
Cc1cc(C(=O)C[N+]2(C)CCOCC2)c(C)n1-c1ccc(Br)cc1	-4	nt	7	12	2.5	9	-4	-0.2	0.3	-36
COC(=O)CNC(c1ccccc1)c1cc(C)ccc1NS(=O)(=O)c1ccc(C)cc1 (stereo unspecified)	21	-3	nt	nt	nt	26	1	-0.8	-0.5	0
CCOC(=O)c1ccc(NC(=S)N2CCC(C(N)=O)(N3CCCCC3)CC2)cc1	-1	1	3	-17	2.5	8	nt	-3.4	0.3	1
Cc1noc(C)c1-c1nc(CS(=O)(=O)c2ccc(F)cc2)no1	12	1	14	2	2.3	-14	-2	1.5	-0.3	3
CC(C)(C)C(=O)/C(C#N)=C/c1cccs1	0	-9	1	-13	-4.7	11	-1	4.3	0.4	-4
c1ccc(-n2nnnc2-n2nnc3ccccc32)cc1	-3	-16	4	0	-2.4	-18	-8	0.8	2.6	9
Cc1ccc(S(=O)(=O)c2nc(Nc3ccccc3)sc2Cl)cc1	-7	nt	-58	-75	-17	16	nt	nt	nt	2
O=C(CN(C(=O)c1csnn1)c1cccc(F)c1)NC1CCCC1	-3	-3	0	2	-1.2	-10	nt	-1.9	?	6
CC(C)Cn1cc(C(=O)NCc2cccs2)c2c3ccccc3n(C)c2c1=O	25	3	nt	nt	nt	35	-6	-4.9	-0.7	-3
Cc1ccc2c(c1)NC(=O)C(CC(=O)NCc1ccc(F)cc1)O2 (stereo unspecified)	5	0	3	5	-1.4	-17	-4	-5.4	-0.2	8
Cc1cc2c(=O)oc(-c3ccc(F)cc3)nc2s1	-2	-3	-5	-6	3.4	4	6	-1.1	-5.2	41
CSc1nc(S(=O)(=O)c2ccc(C)cc2)c(Cl)s1	-6	0	-10	-23	-3.1	24	9	-1.7	0.2	-17
Cc1cc(N2CCOCC2)nc2ccc(NC(=O)CCC(=O)N3CCN(c4cccc(C(F)(F)F)c4)CC3)cc12	2	3	-32	-50	-10	24	-21	4.9	-0.7	4
Cc1noc(C)c1CSCC(=O)OCC(=O)N1CC(=O)Nc2ccccc21	-1	nt	nt	nt	nt	-1	-11	-1.9	-0.4	-9
CC(=O)Nc1ccc(-c2csc(N/N=C\c3ccncc3)n2)cc1	2	1	-15	4	-3.7	nt	99*	-2.3	-1.0	0
O=C(OC1CCOC1=O)c1ccc(Cl)c(S(=O)(=O)N2CCOCC2)c1 (stereo unspecified)	-10	-16	22	15	-1.3	nt	2	-1.1	-2.0	nt
COc1ccc(S(=O)(=O)N2CCc3ccccc32)cc1C(=O)OCc1c(C)noc1C	3	-3	nt	nt	nt	22	5	0.3	0.4	-6
CC(C)CCN(C(=O)c1ccccn1)c1c(N)n(Cc2ccccc2)c(=O)[nH]c1=O	9	-1	3	4	9.9	nt	nt	1.9	0.2	nt

Continued:
SMILES	Beta2AR agonist	Beta apoptosis	rRNA inh HTS	rRNA inh HTS OD600	rRNA inh HTS RFP	T cruzi inh	ALR inh	LANA-H2B inh	A1 inh	Calb FLC
COc1ccc(/C=N/NC(=O)c2ccc(C)cc2)cc1CN1CCN(c2ccc(F)cc2)CC1	10	6	10	2	-4.8	16	nt	-2.9	-0.5	-2
COc1ccc(OC)c(C(=O)NC(CC(N)=O)c2ccc(N3CCC(N4CCCC4)CC3)c([N+](=O)[O-])c2)c1 (stereo unspecified)	4	-4	17	12	-7.2	-7	-4	-2.9	1.3	-8
Cc1cc(N2CCN(S(=O)(=O)Cc3ccccc3)CC2)n2ncnc2n1	-6	0	nt	nt	nt	0	4	2.8	0.5	22
COC(=O)c1ccc(Sc2ccc(C)cc2)c(N)c1	5	0	-48	-47	-9.2	1	-7	-1.5	0.0	7
CCc1nnc(NC(=O)[C@@H](NC(=O)c2ccc(OC)cc2)C(C)C)s1	-4	-6	4	0	2.3	4	0	-10.0	0.3	-7
